# A1 inhib: A1 inhibition | caspase activation, % (no concentration beside the values) | 0.51% of 21,000 active | AID 2241 | MEF A1-2A-BIM cells, caspase-Glo luminescence, 3 h; percent of clofoctol signal, DMSO as zero;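 active means most replicate scores above 10, or exactly half above 10 with mean activity above 10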;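 further: effector caspase 3 and 7 activity cleaving a DEVD luciferin substrate; 50 nL library stock added to about 30 µL; numbers are from one replicate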
# BJeLR viability: BJeLR cell viability reduction. BJeLR fibroblasts viability, CellTiterGlo ATP luminescence, 48 h; HRASV12, hTERT and SV40 LT/ST transformed. viability loss activity score, % (concentration not given with the values). 0.64% of 30,000 active. AID 2275; in the data active means viability loss activity score above about 50%; about a fifth of its hits are not listed in these tables;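 further: higher score means fewer live cells and less ATP luminescence; stock transfer was 50 or 100 nL into about 30 µL; 0% = vehicle wells and 100% = a reference killing control; one replicate is shown; the record names a cut of 85%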
# The depositor's hits bear a star; . = not tested or not shown.
SMILES,A1 inhib,BJeLR viability
C[C@H]1CN([C@@H](C)CO)C(=O)c2cc(NC(=O)c3ccncc3)ccc2O[C@H]1CN(C)C(=O)Nc1ccc2c(c1)OCO2,0.5,-3.8
O=C(/C=N/O)Nc1cc(C(F)(F)F)cc(C(F)(F)F)c1,-1.5,17
C[C@H]1CN([C@@H](C)CO)C(=O)c2cc(NS(=O)(=O)c3ccc(F)cc3)ccc2O[C@H]1CN(C)CC1CC1,1.6,1.3
O=C(Cc1noc2ccccc12)NCCOC12CC3CC(CC(C3)C1)C2,-4.5,0.9
Nc1nc2c(C(=O)N3CCOCC3)nnn2c2ccccc12,-1.6,0.3
Oc1ccccc1C=Nc1cccc2ccccc12,0.5,-3.8
Cc1ccc(S(=O)(=O)Nc2ccc3c(c2)C(=O)N([C@H](C)CO)C[C@@H](C)[C@@H](CN(C)Cc2ccc(Oc4ccccc4)cc2)O3)cc1,0.0,-7.3
C[C@H](CO)N1C[C@H](C)[C@H](CN(C)S(=O)(=O)c2cccs2)Oc2ccc(NC(=O)CCCCCC(=O)Nc3ccccc3N)cc2C1=O,.,-7.9
Cc1ccc(S(=O)(=O)N(C)C[C@@H]2Oc3ccc(NS(=O)(=O)c4ccccc4)cc3C(=O)N([C@@H](C)CO)C[C@H]2C)cc1,0.2,4.8
Cc1ccc(CN2CCCNC2=O)cc1,0.7,-1.8
Cc1noc(C)c1NC(=O)N(C)C[C@@H]1Oc2c(NC(=O)Nc3cccc4ccccc34)cccc2C(=O)N([C@H](C)CO)C[C@@H]1C,.,-0.7
C[C@H](CO)N1C[C@H](C)[C@@H](CN(C)Cc2ccc(C(F)(F)F)cc2)Oc2ccc(NC(=O)CCCN(C)C)cc2C1=O,-0.4,-0.2
Cc1ccc(S(=O)(=O)Nc2cccc3c2O[C@H](CN(C)C(=O)Nc2ccc(F)cc2)[C@@H](C)CN([C@@H](C)CO)C3=O)cc1,.,-1.1
CCCNC(=O)CSc1c(-c2ccccc2)c2cc(Cl)ccc2[nH]c1=O,0.2,-2.1
Cc1cccc(N2CCN(C(=O)Nc3ccccc3)CC2C)c1 (stereo not given),1.8,0.4
COc1ccc(S(=O)(=O)N(CC(N)=O)c2ccc(C)cc2)cc1,-0.8,2.4
COc1ccc(S(=O)(=O)N(C)C[C@@H]2Oc3c(NC(=O)c4nc5ccccc5s4)cccc3C(=O)N([C@H](C)CO)C[C@@H]2C)cc1,.,-2.0
C[C@H](CO)N1C[C@H](C)[C@H](CN(C)C(=O)Nc2ccc(F)cc2)Oc2ccc(NS(=O)(=O)c3ccc(F)cc3)cc2C1=O,0.2,-2.9
C[C@@H]1CN([C@@H](C)CO)C(=O)c2cc(NS(C)(=O)=O)ccc2O[C@H]1CN(C)C(=O)Nc1ccc(C(F)(F)F)cc1,-0.2,0.3
CC(C)CNC(=O)C1Sc2nnc(-c3ccccc3)n2NC1c1ccccc1 (stereo not given),-0.8,1.0
C=C1C(=O)O[C@@H]2[C@H]3C(C)=CC(=O)C3=C(C)C[C@H](O[C@@H]3O[C@H](CO)[C@@H](O)[C@H](O)[C@H]3O)[C@@H]12,-0.3,-1.2
O=C(Nc1ccc(-n2nncc2-c2ccccc2)cc1)c1ccc(S(=O)(=O)N2CCCCC2)cc1,-0.1,4.0
C[C@H](CO)N1C[C@H](C)[C@H](CN(C)S(=O)(=O)c2ccccc2)Oc2c(NC(=O)c3nc4ccccc4s3)cccc2C1=O,.,-1.1
CC1CCCCC1NC(=O)CCn1c(=O)oc2ccccc21 (stereo not given),.,1.6
C[C@H](CO)N1C[C@H](C)[C@H](CN(C)C(=O)Nc2ccc(C(F)(F)F)cc2)Oc2ccc(NC(=O)c3ccncc3)cc2C1=O,0.0,0.7
C[C@H](CO)N1C[C@H](C)[C@H](CN(C)Cc2ccc3c(c2)OCO3)Oc2c(NC(=O)Nc3ccc(C(F)(F)F)cc3)cccc2C1=O,.,1.2
C[C@@H]1CN([C@H](C)CO)C(=O)c2cccc(N(C)C)c2O[C@@H]1CN(C)C(=O)Nc1ccc(F)cc1,.,-1.2
CCOC(=O)C1CCCN(C(=O)c2c[nH]n3c(=O)c(Cc4ccc(Cl)cc4)c(C)nc23)C1 (stereo not given),.,3.2
C[C@@H]1CN([C@H](C)CO)C(=O)c2cc(NC(=O)C3CC3)ccc2O[C@@H]1CN(C)Cc1ccc(C(=O)O)cc1,-0.5,4.4
C[C@H](CO)N1C[C@H](C)[C@H](CN(C)Cc2ccc(C(=O)Nc3ccccc3N)cc2)Oc2ccc(NC(=O)Cn3cnnn3)cc2C1=O,.,-7.2
CCOC(=O)c1c(NC(=O)CC)sc(C)c1C,0.2,1.7
C[C@@H]1CN([C@H](C)CO)C(=O)c2cccc(NS(C)(=O)=O)c2O[C@H]1CN(C)CC1CCCCC1,.,0.9
Cc1ccc(S(=O)(=O)Nc2ccc3c(c2)C(=O)N([C@@H](C)CO)C[C@@H](C)[C@H](CN(C)C)O3)cc1,0.0,-3.5
COCCc1ccc(OCC(O)CNC(C)C)cc1 (stereo not given),0.2,-2.6
CCC(C)N(C)C(=O)c1cc2ccccc2c(-c2ccccc2Cl)n1 (stereo not given),-0.7,2.8
C(=N/N1CCN(c2ccccc2)CC1)/c1ccccc1,-2.3,-6.9
CCOC(=O)CSc1n[nH]c(CN2c3ccccc3Sc3ccccc32)n1,-0.2,0.4
Cc1ccc(S(=O)(=O)N(C)C[C@H]2Oc3c(NC(=O)c4ccncc4)cccc3C(=O)N([C@H](C)CO)C[C@H]2C)cc1,.,0.4
CNC[C@@H]1Oc2ccc(NS(=O)(=O)c3ccc(C)cc3)cc2C(=O)N([C@H](C)CO)C[C@@H]1C,0.3,-2.5
Cc1ccc(C(=O)c2cc(F)c(N3CCOCC3)cc2Cl)cc1C,-0.9,4.1
CCOC(=O)c1c(C)c(-c2ccccc2)n(CC(=O)N(CC)CC)c1C,.,0.2
Cc1ccc2c(c1)C(C)(C)C1(C)N(Cc3ccccc3)C(=O)CN21 (stereo not given),-0.1,-5.1
NS(=O)(=O)c1ccc(NC(=O)C2CC2)cc1,0.0,0.4
CCC12CN3CC(CC)(CN(C1)C(=O)c1ccccc1C3=O)C2=O,-0.1,1.4
C[C@H](CO)N1C[C@H](C)[C@@H](CN(C)C(=O)Nc2ccccc2)Oc2c(NS(=O)(=O)c3ccccc3)cccc2C1=O,.,1.2
CS(=O)(=O)N(Cc1ccccc1Cl)c1ccc(C(=O)Nc2ccc3c(c2)OCO3)cc1,.,1.4
CC1CCCCN1CCCNC(=O)Nc1ccc(Cl)cc1 (stereo not given),-0.9,3.0
CC12CCC(C(=O)N3NC(=O)[C@@H](c4ccccc4)[C@@H]3c3ccccc3)(OC1=O)C2(C)C (stereo not given in full),0.3,3.0
Cc1ccccc1OCc1nnc(SCC(N)=O)n1C,0.1,-0.8
COc1ccc(S(=O)(=O)Nc2ccc3c(c2)C(=O)N([C@@H](C)CO)C[C@H](C)[C@H](CN(C)CC2CC2)O3)cc1,0.5,1.9

# Quoted at random: 4 compounds from above.
SMILES,A1 inhib,BJeLR viability
NS(=O)(=O)c1ccc(NC(=O)C2CC2)cc1,0.0,0.4
CC1CCCCN1CCCNC(=O)Nc1ccc(Cl)cc1 (stereo not given),-0.9,3.0
COc1ccc(S(=O)(=O)Nc2ccc3c(c2)C(=O)N([C@@H](C)CO)C[C@H](C)[C@H](CN(C)CC2CC2)O3)cc1,0.5,1.9
Cc1ccccc1OCc1nnc(SCC(N)=O)n1C,0.1,-0.8

# The listing continues.
SMILES,A1 inhib,BJeLR viability
Cc1cc(C)nc(SCC(=O)N2c3ccccc3C(C)CC2(C)C)n1 (stereo not given),0.4,-2.3
O=C(NC(N1CCCC1=O)(C(F)(F)F)C(F)(F)F)c1cccnc1,-0.5,1.8
Clc1ccc(SCc2csc(-c3ccsc3)n2)cc1,-0.9,-0.4
N#Cc1c(N)c(C(=O)c2ccccc2)n2c1CCC2,0.0,4.2
Cc1ccc(NC(=O)c2ccsc2)cc1NS(C)(=O)=O,.,2.6
CC(=O)Nc1ccc(S(=O)(=O)N2CCCCC2C)cc1 (stereo not given),-0.1,2.1
COc1ccc(NC(=O)Nc2cccc3c2O[C@@H](CN(C)CC2CC2)[C@H](C)CN([C@@H](C)CO)C3=O)cc1,.,0.1
COc1cc(NC(=O)C(Sc2nc(C)cc(C)c2C#N)c2ccccc2)c(OC)cc1Cl (stereo not given),-0.8,0.6
CC1NC(=O)C(C#N)=C(SCc2ccccc2)S1 (stereo not given),-3.3,-1.7
CCCCC/C=C\C/C=C\CCCCCCCC(=O)NCC(=O)O,0.1,-2.8

# Some of these compounds in order of molecular weight, falling:
SMILES,A1 inhib,BJeLR viability
COc1ccc(NC(=O)Nc2cccc3c2O[C@@H](CN(C)CC2CC2)[C@H](C)CN([C@@H](C)CO)C3=O)cc1,.,0.1
Cc1cc(C)nc(SCC(=O)N2c3ccccc3C(C)CC2(C)C)n1 (stereo not given),0.4,-2.3
CC1NC(=O)C(C#N)=C(SCc2ccccc2)S1 (stereo not given),-3.3,-1.7

# (next part)
SMILES,A1 inhib,BJeLR viability
O=C(c1ccc(C(F)(F)F)cc1)N1CCCCC1,0.6,2.1
COc1ccc(S(=O)(=O)N(C)C[C@@H]2Oc3c(NC(=O)C4CCOCC4)cccc3C(=O)N([C@@H](C)CO)C[C@H]2C)cc1,.,4.6
C=CCc1cccc(C)c1OCCCN1CCC(C)CC1,.,5.0
C[C@H](CO)N1C[C@H](C)[C@@H](CN(C)C(=O)Nc2ccccc2)Oc2ccc(NC(=O)c3ccncc3)cc2C1=O,0.4,-1.1
CC(C)c1ccc2c(c1)CCC1C(C)(C(N)=O)CCCC21C (stereo not given),0.1,-1.9
O=C(CSc1cn(Cc2ccccc2Cl)c2ccccc12)N1CCCC1,0.1,-3.9
CCC(=O)c1ccc(N2CCN(C(=O)c3ccco3)CC2)c(F)c1,-2.2,1.3
C[C@@H]1CN([C@@H](C)CO)C(=O)c2cc(NC(=O)CCC(F)(F)F)ccc2O[C@@H]1CN(C)Cc1ccc(-c2ccccc2)cc1,-0.2,-12
Cc1ccccc1NS(=O)(=O)c1ccc2[nH]cc(C(=O)N3CCc4ccccc43)c(=O)c2c1,0.4,2.2
O=C(NC(Cc1ccccc1)C(=O)OCc1cnc(-c2ccccc2)o1)c1ccccc1 (stereo not given),0.9,4.5
OC(CNCc1ccc2c(c1)OCO2)COc1ccc(-c2csnn2)cc1 (stereo not given),-0.1,-8.7
C[C@H](CO)N1C[C@H](C)[C@@H](CN(C)S(=O)(=O)c2ccc(Cl)cc2)Oc2c(NC(=O)Nc3ccc4c(c3)OCO4)cccc2C1=O,.,-2.4
CC(=O)OC1CCN(c2cc(C(F)(F)F)nc3cc(Cl)cc(Cl)c23)CC1,-0.7,-0.7
C[C@@H]1CN([C@H](C)CO)C(=O)c2cc(N(C)C)ccc2O[C@H]1CN(C)C(=O)Nc1ccccc1,-0.3,-4.5
CC1(C)C(c2ccccc2)=[N+]([O-])C(c2ccc(Br)cc2)N1O (stereo not given),.,0.1
C[C@@H]1CN([C@@H](C)CO)C(=O)c2cccc(NS(C)(=O)=O)c2O[C@@H]1CN(C)S(=O)(=O)c1ccccc1,.,-0.5
C/C=C/C(=O)NCC1OCCc2ccccc21 (stereo not given),-0.1,-5.0
COc1ccc(NC(=O)N(C)C[C@@H]2Oc3ccc(NC(=O)Nc4cccc5ccccc45)cc3C(=O)N([C@H](C)CO)C[C@H]2C)cc1,-0.1,2.0
CC1(C)O[C@H]2CC(=O)OC[C@@]23[C@H]1CC(=O)[C@@]1(C)C2=CC(=O)O[C@@H](c4ccoc4)[C@]2(C)CC[C@@H]13,0.4,-1.4
COc1cc(O)c2c(=O)cc(-c3cc(OC)c(OC)c(O)c3OC)oc2c1,-0.8,-5.2

# In the list so far, these have a furan ring, fused or not.
SMILES,A1 inhib,BJeLR viability
CCC(=O)c1ccc(N2CCN(C(=O)c3ccco3)CC2)c(F)c1,-2.2,1.3
CC1(C)O[C@H]2CC(=O)OC[C@@]23[C@H]1CC(=O)[C@@]1(C)C2=CC(=O)O[C@@H](c4ccoc4)[C@]2(C)CC[C@@H]13,0.4,-1.4

# Going on with the list.
SMILES,A1 inhib,BJeLR viability
COc1ccc(CN(C)C[C@H]2Oc3ccc(NC(=O)Cc4ccccc4)cc3C(=O)N([C@@H](C)CO)C[C@@H]2C)cc1,0.4,-3.7
COc1cccc(CNC(=O)c2cnn3c(C)c(Cc4c(C)cc(C)cc4C)c(C)nc23)c1,0.6,-5.1
CC(C)c1ccc(NS(=O)(=O)c2ccc(N3C(=O)CCC3=O)cc2)cc1,-0.5,-1.7
C[C@H]1CN([C@@H](C)CO)C(=O)c2cc(N(C)C)ccc2O[C@H]1CN(C)S(=O)(=O)c1cn(C)cn1,0.5,4.7
COC(=O)c1ccc(-c2ccco2)n1CC(=O)NC(C)C,1.1,2.6
COc1ccc(S(=O)(=O)Nc2cccc3c2O[C@@H](CN(C)C)[C@@H](C)CN([C@@H](C)CO)C3=O)cc1,.,3.4
Nc1ccc(-n2cnnn2)cc1,0.2,-7.6
CCN(CC)CCCn1c(-c2ccccc2)cn2c3ccccc3nc12,0.3,-3.6
COc1ccccc1CNC(=O)C1c2ccccc2C(=O)N2CCc3ccccc3C12 (stereo not given),.,-2.9
O=C(CSc1nc2ccccc2o1)NCC12CC3CC(CC(C3)C1)C2,0.0,-0.8
CCOC(=O)N1CCN(c2cc(C(F)(F)F)nc3c(Cl)cccc23)CC1,-0.4,3.0
C[C@H](CO)N1C[C@H](C)[C@H](CN(C)C(=O)Nc2ccc3c(c2)OCO3)Oc2c(NC(=O)C3CC3)cccc2C1=O,.,-0.3
C[C@H]1CN([C@@H](C)CO)C(=O)c2cccc(NC(=O)c3ccncc3)c2O[C@H]1CN(C)Cc1ccc(C(F)(F)F)cc1,.,9.0

# Screens: PubChem, Broad Institute

# An excerpt. The share of hits here may be higher or lower than overall.
